Assay outcomes: PubChem, Broad Institute
Tg IFNy HTS = T. gondii growth inhibition with IFN-gamma, primary screen, cell-based; Toxoplasma gondii growth in IFN-gamma-treated host cells; stronger effect = lower value; reference of the scale not given here; activity change, negative = inhibition, %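 (about 20 µM by stock and volumes)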; 69,000 tested, 3.8% active; AID 1259416, 2018;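 active = below -70%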;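 note: host cells are HeLa cells infected with Toxoplasma gondii; parasite growth read as luciferase light; one replicate is shown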
Active calls of the source: *; i = inactive; & = joins results of further samples. Not all compounds are listed; the hit share may differ from the screen's.

SMILES	Tg IFNy HTS
CC(C)(C)NCC(O)COc1cccc2[nH]c(C#N)cc12 (stereo not given)	18
Oc1cccc(CN2C[C@@H](c3ccccc3)[C@@H]3[C@H]2C2CCN3CC2)c1	1
Cc1ccc(CN2CCN(CC3CC3)c3ncccc3C2)s1	0
O=C(NC1CCCCCC1)c1cc2cccnc2n(Cc2ccc(Cl)cc2)c1=O	-9
c1ccc(C2(c3ccccc3)CC2C2=NCCN2)cc1 (stereo not given)	15
C=CCSc1nnc(OC(=O)N(C)C)n1-c1cccc(C(F)(F)F)c1	-47
O=C(Nc1cccc(F)c1)c1cc2cccnc2n(Cc2ccccc2F)c1=O	82
CN1[C@@H]2CC[C@H]1CC(OC(=O)C1C=Nc3ccccc31)C2 (stereo not given in full)	9
CCC(O)Cn1cc(C2=CCN(CC3CC3)CC2)cn1 (stereo not given)	7
Cc1occc1C(=O)N1CC[C@H]2[C@@H]1CCN2Cc1cccnc1	1
CCN1C[C@H]2[C@@H](OC)CCN(C(=O)COc3ccccc3OC)[C@H]2C1	-40
C=CCN1CC[C@]23c4c5ccc(O)c4O[C@H]2/C(=N/NC(=O)c2ccccc2)CC[C@@]3(O)[C@H]1C5	-7
C=C(C)C1Cc2c(ccc3c(=O)c4c(oc23)COc2cc(OC)c(OC)cc2-4)O1 (stereo not given)	11
C=CCN1CCN(C)C2(CCN(c3cccnc3)CC2)C1=O	1
C=CCNC(=O)c1cn(Cc2ccc(C)o2)cc(C(=O)N2CCCCCCC2)c1=O	-2
O=C(Nc1ccccc1Cl)c1cc2cccnc2n(Cc2ccccc2F)c1=O	33
CC(C)CNC(=O)C1CC2CN(Cc3ccncc3)CC1O2 (stereo not given)	-1
c1ccc(CN2CCO[C@H]3[C@H]2CC[C@H]3OCc2cccnc2)nc1	9
N#Cc1ccc(N2CC3(CCN(Cc4cccnc4)C3)C2)nc1	142
COc1cc([C@@H]2c3cc4c(cc3[C@@H](O)C3COC(=O)C32)OCO4)cc(OC)c1O (stereo not given in full)	-55
Cc1ccc(NC(=O)c2cc3cccnc3n(Cc3ccc(Cl)cc3)c2=O)cc1	463
CNC(=O)[C@]12CCO[C@H]1CCN(Cc1cccnc1OC)C2	i
Cc1c(Cl)cccc1NC(=O)c1cc2cccnc2n(Cc2ccccc2)c1=O	4
COc1ccc2c(c1)C1(CCN(C(=O)C(C)(C)NC(=O)OCc3ccccc3)CC1)CC2CC(=O)O (stereo not given)	1
c1ccc(OCC2COCCC23CCNCC3)nc1 (stereo not given)	4
SMILES	Tg IFNy HTS
Cc1noc(C)c1CN1CC2CC(C1)N(CC(=O)O)C2 (stereo not given)	107
Cc1noc(C)c1CN1CC[C@@H]2C[C@H](C(=O)N(C)C)O[C@@H]2C1	-19
COCCN1CCN(Cc2nccs2)Cc2ccc(C)nc21	-10
CC(C)c1nnc(CN2C[C@H]3CC=CC[C@H]3C2)o1	10
C=CCN1CC[C@H]2[C@@H]1CCN2C(=O)Cc1cccs1	14
CCN(Cc1ccccc1)C(=O)c1cn(CC2CCCO2)cc(C(=O)NC2CCCCCCC2)c1=O (stereo not given)	5
Cc1nonc1CC(=O)N(CCN(C)C)Cc1ccccc1F	7
O=C(C[C@@H]1COC[C@H]2CNC[C@@H]21)NCCc1ccncc1	3
Cc1ccc(-n2c(C)cc(/C=C3/C(=O)NC(=O)N(C)C3=O)c2C)cc1	-2
CN1C(=O)C2(CCN(C3CCOC3)CC2)c2ccccc21 (stereo not given)	-69
CCN(CC)CCNC(=O)c1cc2cccnc2n(Cc2ccc(F)cc2)c1=O	30
CN1C[C@@H]2C[C@H](C(=O)Nc3cccnc3)[C@@H](C1)O2	92
C[C@H]1OC(O[C@H]2[C@@H](O)CC(O[C@H]3[C@@H](O)C[C@H](O[C@H]4CC[C@]5(C)C6CC[C@]7(C)[C@@H](C8=CC(=O)OC8)[C@@H](O)C[C@]7(O)[C@@H]6CC[C@@H]5C4)O[C@@H]3C)O[C@@H]2C)C[C@H](O)C1O (stereo not given in full)	-73*
COC(=O)c1cccc(CN(C)C(C)Cc2cc(C)ccn2)n1 (stereo not given)	5
CN1CCc2cc(Cl)c(O)cc2[C@H]2c3ccccc3CC[C@@H]21	-1
Cc1ncsc1CCCl	-63
Cc1ccccc1-n1c(CF)nc2ccc(N)cc2c1=O	-11
O=C(NCCCc1ccccc1)c1cc2cccnc2n(Cc2ccccc2F)c1=O	-27
C/C=C(\C)CN1CCC2(CCNCC2)C1	1
CC(C)NC(=O)C1=NOC2(CCNC2)C1 (stereo not given)	11
O=C(O)c1ccccc1-c1c2cc(Br)c(=O)cc-2oc2[c]([Hg])c(O)c(Br)cc12	10
CN(C)[C@@H]1CN(Cc2ccoc2)[C@H]2COC[C@@H]12	-4
O=C(NCC1CC1)c1c(O)c2cccnc2n(Cc2ccccc2)c1=O	-92*
COc1c2c(cc3c1OCO3)CC[N+](C)=C2	0
CN1CCN(CC2CC2)C(=O)C12CCNCC2	52

16 entries already listed, arranged by length of the SMILES, falling.
SMILES	Tg IFNy HTS
C[C@H]1OC(O[C@H]2[C@@H](O)CC(O[C@H]3[C@@H](O)C[C@H](O[C@H]4CC[C@]5(C)C6CC[C@]7(C)[C@@H](C8=CC(=O)OC8)[C@@H](O)C[C@]7(O)[C@@H]6CC[C@@H]5C4)O[C@@H]3C)O[C@@H]2C)C[C@H](O)C1O (stereo not given in full)	-73*
O=C(O)c1ccccc1-c1c2cc(Br)c(=O)cc-2oc2[c]([Hg])c(O)c(Br)cc12	10
CCN(Cc1ccccc1)C(=O)c1cn(CC2CCCO2)cc(C(=O)NC2CCCCCCC2)c1=O (stereo not given)	5
Cc1noc(C)c1CN1CC[C@@H]2C[C@H](C(=O)N(C)C)O[C@@H]2C1	-19
Cc1ccc(-n2c(C)cc(/C=C3/C(=O)NC(=O)N(C)C3=O)c2C)cc1	-2
O=C(NCCCc1ccccc1)c1cc2cccnc2n(Cc2ccccc2F)c1=O	-27
CN1CCc2cc(Cl)c(O)cc2[C@H]2c3ccccc3CC[C@@H]21	-1
CN(C)[C@@H]1CN(Cc2ccoc2)[C@H]2COC[C@@H]12	-4
C=CCN1CC[C@H]2[C@@H]1CCN2C(=O)Cc1cccs1	14
CC(C)c1nnc(CN2C[C@H]3CC=CC[C@H]3C2)o1	10
CN1C(=O)C2(CCN(C3CCOC3)CC2)c2ccccc21 (stereo not given)	-69
Cc1noc(C)c1CN1CC2CC(C1)N(CC(=O)O)C2 (stereo not given)	107
Cc1nonc1CC(=O)N(CCN(C)C)Cc1ccccc1F	7
Cc1ccccc1-n1c(CF)nc2ccc(N)cc2c1=O	-11
COc1c2c(cc3c1OCO3)CC[N+](C)=C2	0
CC(C)NC(=O)C1=NOC2(CCNC2)C1 (stereo not given)	11

The listing continues.
SMILES	Tg IFNy HTS
COc1cc(C)c(-c2nccn2C(C)c2ccc(C)nc2)cc1C (stereo not given)	-14
C=C(C)c1cc2cc(C(C)=O)c(O)cc2o1	-16
FC1(F)CCN(Cc2cccs2)CC12CCN(c1ncccn1)C2 (stereo not given)	-2
O=C(NCCCc1ccccc1)c1cc2cccnc2n(Cc2ccccc2)c1=O	39
N#C/C(=C\c1ccc(O)cc1)C(=O)O	13
CCCN1CCC[C@@H]2Cc3nc(N)ncc3C[C@H]21	13&3
COc1ccccc1CNC(=O)c1cc2cccnc2n(Cc2ccccc2)c1=O	24
Cc1ccc(NC(=O)c2cc3cccnc3n(Cc3ccccc3)c2=O)cc1C	296
C=CCN1CC[C@H]2[C@@H]1CCN2C(=O)c1cc(C)on1	19
Cc1noc(C)c1CN1CCCC2(CN(CC(=O)O)CCO2)C1 (stereo not given)	0
C[C@]12C=CC(=O)C=C1CCC1C2CC[C@]2(C)C(=O)CCC12 (stereo not given in full)	3
CCCSc1ncc(CN2CC[C@@]3(O)CCCC[C@H]3C2)cn1	14
COc1cc2c(cc1O)CCNC2C (stereo not given)	4
Cc1cnc(N2CCN3C[C@H](OCCN(C)C)C[C@@H]3C2)nc1	-11
COC(=O)c1ccc(/C=C/C(=O)C2C(=O)N(C)C3(C)CC2c2cc(Br)ccc2O3)cc1 (stereo not given)	-3
COc1ncccc1CN1CCC2(CC1)COCCN2CC1CC1	-30
Cc1cccc2sc(NC(=O)c3cc4cccnc4n(Cc4ccccc4)c3=O)nc12	48
CN(C)c1ccc(CNCCc2ccccc2)cc1	6
CS(=O)(=O)N1CC2(CCN(Cc3ccsc3)C2)C1	-3
CC(Cc1cccc(F)c1)NCc1n[nH]c2c1CCC2 (stereo not given)	2
COC(=O)c1ccccc1NC(=O)c1cc2cccnc2n(Cc2ccccc2)c1=O	4
C[C@]12CC[C@@H](O)C[C@@H]1CC[C@@H]1[C@@H]2CC[C@]2(C)[C@@H](C(=O)CO)CC[C@@H]12	-66
COc1c[nH]c(CN2C[C@H]3C[C@H](O)[C@H](O)C[C@H]3C2)cc1=O	122
CCCCC/C=C\C/C=C\C/C=C\C/C=C\CCCC(=O)NCc1ccc(O)c(OC)c1	9
COCC(C)NC(=O)c1cc2cccnc2n(Cc2ccccc2)c1=O (stereo not given)	41
SMILES	Tg IFNy HTS
Fc1cccnc1O[C@@H]1CC[C@@H]2[C@@H]1OCCN2CC1CCOCC1	-64
O=C(Nc1cccc(F)c1)C1CCC2(CNC2)O1 (stereo not given)	14
C[C@@]12N[C@@H](Cc3ccccc31)c1ccccc12	-61
CC(NC(=O)c1c(O)c2cccnc2n(Cc2ccccc2)c1=O)c1ccc(F)cc1 (stereo not given)	-113*
COc1ccc(OC)c(/C=C/C(=O)C2C(=O)NC34CCCCC3C2c2ccccc2O4)c1 (stereo not given)	-74*
Cc1cc(OC(=O)N2CCCCC2)c(C(C)C)cc1[N+](C)(C)C	11
COc1ccccc1NC(=O)c1cc2cccnc2n(Cc2ccccc2F)c1=O	62
CCC1(C)CC(=O)NC(=O)C1	6
Cc1cccc(NC(=O)c2cc3cccnc3n(Cc3ccc(Cl)cc3)c2=O)c1C	37
CCN(CC)CCOC(=O)C(C)(c1ccccc1)c1ccccc1	12
CCc1ccc(NC(=O)c2cc3cccnc3n(Cc3ccc(F)cc3)c2=O)cc1	7
Cc1ccc(/C=C2/C(=O)NC(=O)N(C)C2=O)cc1	-2
Cc1ccc(NC(=O)c2c(O)c3cccnc3n(Cc3ccccc3)c2=O)c(F)c1	138
CC(=O)OCC(=O)[C@H]1CC[C@H]2[C@@H]3CC[C@H]4C[C@H](O)CC[C@]4(C)[C@H]3C(=O)C[C@]12C	2
O=C(NCCCCc1ccccn1)C1CC2(CCNCC2)CN1 (stereo not given)	-37
CCc1ccc(NC(=O)c2cc3cccnc3n(Cc3ccccc3)c2=O)cc1	54
COc1ccc(CNC(=O)c2cc3cccnc3n(Cc3ccccc3F)c2=O)cc1	62
CNC(=O)C[C@@H]1C[C@@H]2CN(Cc3ccncc3)C[C@H]2O1	-48
Clc1cccc(CN2CC3CNC(C3)C2)c1 (stereo not given)	41
O=C(Nc1cccnc1)c1cc2cccnc2n(Cc2ccccc2)c1=O	110
O=C(Cc1ccccc1)N1CC2(C1)[C@H](c1ccccc1)[C@H](CO)N2Cc1cccc(Cl)c1	-40
c1cnc2c(c1)CN(Cc1ccoc1)CCN2CC1CC1	-12
COc1ccc2c(c1)C1(CCN(C(=O)c3ccc4c(c3)OCCO4)CC1)CC2CC(=O)O (stereo not given)	-22
Oc1ccc2c3c1O[C@H]1c4oc5ccccc5c4C[C@@]4(O)C(C2)N(CC2CC2)CC[C@]314	0
Cc1cnc(N2CCC[C@H]3CN(CC(=O)N(C)C)C[C@H]32)nc1	i

Some of the entries so far, with each value named:
CCCCC/C=C\C/C=C\C/C=C\C/C=C\CCCC(=O)NCc1ccc(O)c(OC)c1
  Tg IFNy HTS: 9

COCC(C)NC(=O)c1cc2cccnc2n(Cc2ccccc2)c1=O (stereo not given)
  Tg IFNy HTS: 41

Other records follow.
SMILES	Tg IFNy HTS
c1ccc(CN2CCC3OCCCC3(COCC3CC3)C2)nc1 (stereo not given)	-8
CCCCc1ccc(NC(=O)c2cc3cccnc3n(Cc3ccccc3F)c2=O)cc1	43
O=C(CN1C2CCC1CC(O)(c1ccccn1)C2)NC1CCCCC1 (stereo not given)	15
CC(=O)C1=C(C)OC(N)=C(C(=O)OC(C)C)C12C(=O)Nc1ccccc12 (stereo not given)	-21
COCc1cc(OC(=O)N(C)C)nc(-c2cc(Cl)cc(Cl)c2)n1	16
CN(C)C(=O)C1OC2(CCNCC2)c2ccccc21 (stereo not given)	98
O=C(NCCC1=CCCCC1)c1cc2cccnc2n(Cc2ccccc2F)c1=O	29
Fc1cccnc1O[C@@H]1CN(Cc2ccoc2)[C@H]2CCCO[C@@H]12	9
COC1C(O)CC(OC2C(O)CC(OC3C(O)CC(OC4CCC5(C)C(CCC6[C@@H]5CC(O)C5(C)C(C7=CC(=O)OC7)CCC65O)C4)OC3C)OC2C)OC1C (stereo not given in full)	-77*
Cn1cc(CN2C[C@H]3CNC[C@H]3C2)cn1	2
Cc1cc(CN2CCO[C@@H]3[C@H]2CC[C@H]3OCC(C)C)no1	-8
CN1C[C@H](CNC(=O)OCc2ccccc2)C[C@@H]2c3cccc4c3c(cn4C)C[C@H]21	-49&-4
CCO[C@H]1CC[C@@H]2[C@H]1OCCN2Cc1cc(C)on1	-81*
CCN1CC[C@H]2OCC[C@@H](C(=O)NCc3cccnc3)[C@@H]2C1	7
C(=C\c1ccccc1)/CN1CCN(CCOC(c2ccccc2)c2ccccc2)CC1	1&-55&-38
Cc1ccc(CN2C[C@H]3COC[C@@]3(COCc3cccnc3)C2)o1	-3
C=CCOC1C2CCC1N(Cc1ccccn1)CCO2 (stereo not given)	-92*
O=C(c1ccc(Cl)cc1)C1CCCN(C2CCSCC2)C1 (stereo not given)	-38
N#Cc1cccc(NC2COC3(CCN(Cc4ccoc4)C3)C2)n1 (stereo not given)	-33
C[C@@H]1C(=O)NC[C@H]2CN(CC3CC3)C[C@@H]21	7
COc1ccc(C)cc1NC(=O)c1cc2cccnc2n(Cc2ccc(F)cc2)c1=O	49
O=C(Nc1ccc(F)cc1)c1cc2cccnc2n(Cc2ccc(F)cc2)c1=O	43
Cc1nc(CN2CCC3(CC2)C(=O)N(C)c2ccccc23)cs1	-5
OC12C3C4CC5C6C4C1C6C(C53)N2CCc1cccc(F)c1 (stereo not given)	18&19
CN1CCOCC2(C1)CN(c1nccc(C(F)(F)F)n1)CCO2 (stereo not given)	1
COCC1(NC(=O)C(C)N2CCCC2=O)CCCC1 (stereo not given)	7
